Screens deposited in PubChem by several laboratories.
AF4-AF9 inh – inhibitors of AF4 peptide binding to AF9, primary screen, biochemical, AlphaScreen, biotin-AF4 peptide, FLAG-AF9, single point | Protein AF-9 (Homo sapiens), P42568 | inhibition, % at 10 µM | actives 0.47% (n = 350,000) | AID 651704, 2012;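 active means every replicate reaching a set inhibition limit, whatever the replicate mean, cut at about 25% in these data; inconclusive means mean inhibition reaches that limit but some replicates miss it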;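 further: 0% = plate neutral control median and 100% = total signal loss; the record names both 10 and 1 µM as test concentration; the first replicate is given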
Target sequence (P42568 whole entry, looked up): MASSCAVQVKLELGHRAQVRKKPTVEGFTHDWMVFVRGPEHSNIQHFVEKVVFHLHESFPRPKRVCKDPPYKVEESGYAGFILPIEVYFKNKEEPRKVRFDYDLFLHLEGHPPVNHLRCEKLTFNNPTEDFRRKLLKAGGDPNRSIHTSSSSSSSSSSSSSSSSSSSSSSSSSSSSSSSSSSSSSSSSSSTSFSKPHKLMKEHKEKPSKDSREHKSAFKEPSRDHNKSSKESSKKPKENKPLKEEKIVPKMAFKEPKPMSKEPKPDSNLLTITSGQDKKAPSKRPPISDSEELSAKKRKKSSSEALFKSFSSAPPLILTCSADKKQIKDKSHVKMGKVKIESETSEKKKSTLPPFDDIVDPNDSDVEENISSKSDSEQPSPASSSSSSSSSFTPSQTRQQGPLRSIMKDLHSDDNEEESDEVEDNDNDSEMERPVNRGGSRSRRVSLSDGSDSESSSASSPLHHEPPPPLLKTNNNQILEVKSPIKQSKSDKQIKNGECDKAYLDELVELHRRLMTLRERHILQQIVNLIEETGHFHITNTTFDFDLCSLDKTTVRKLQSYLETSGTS
Bfl-1 A1 inh – caspase 3/7 activation in MEF A1-2A-BIM cells, primary screen, A1 inhibitor project, cell-based, luminescence, HTS; Caspase-Glo 3/7 luminescence, 3 h; percent of clofoctol response, vehicle zero; caspase activation, % (test concentration not listed); actives 0.066% (n = 330,000);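 active means over half of replicate activation scores above 10%, or exactly half above 10 with the replicate mean above 10; inconclusive means replicate mean below 10 yet half the replicates above 10; inactive means over half of replicates below 10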;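 further: wells of about 30 µL received 50 nL stock; many hits fall short of the cut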
E coli growth – E. coli growth inhibition, primary screen, OD600; Escherichia coli growth, 23 h; hits give low values; OD600 absorbance (concentration not given with the values); actives 0.21% (n = 330,000); AID 1053175, 2014;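 active means OD600 absorbance below the run mean of sample wells minus 3.6 SD, in any replicate, cut at about 0.56 in these data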;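 further: stock transfer was 300 nL into about 60 µL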
T cruzi repl – inhibitors of intracellular T. cruzi growth, primary screen, luminescence, NIH3T3 host cells; inhibition, % (no concentration beside the values); T. cruzi beta-gal in NIH3T3, 90 h; AID 1885, 2009; actives 1.4% (n = 300,000);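 active means mean inhibition across valid replicates above about 55%, limit read from the data; inconclusive means mean below that limit but half or more replicates reach it; inactive means mean below it, under half of replicates reach it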;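 further: signal also drops with host cell toxicity which is not excluded here; 0% = plate median of DMSO wells and 100% = zero luminescence signal; higher percent means less beta-gal luminescence so fewer parasites; stock transfer was 50 nL into about 50 µL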
Beta cell apopt – inhibitors of cytokine-induced beta cell apoptosis, primary screen, luminescence; INS-1E cytokine-induced death, ATP luminescence, 48 h; percent of positive-control rescue, neutral wells zero; protection from apoptosis, % (no concentration beside the values); actives 0.8% (n = 300,000); AID 435005, 2010;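 active means all replicates at 75% or more, or half of them and the mean; inconclusive means half reach 75% but not the mean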;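 further: 0% = cytokine-treated negative control wells and 100% = positive control rescue; higher means more ATP so stronger rescue from cytokine killing; wells of about 40 µL received 100 nL stock; the first replicate is given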
UCH37 inh – inhibitors of human UCH37 deubiquitinase, primary screen, biochemical, Ub-AMC cleavage, fluorescence | Ubiquitin carboxyl-terminal hydrolase isozyme L5 (Homo sapiens), Q9Y5K5 | inhibition, % (no concentration beside the values) | purified proteasome/UCH37 | actives 0.33% (n = 330,000);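 active means mean of two replicates above 20%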;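 further: 0% = compound-free wells with enzyme and 100% = wells lacking proteasome; stock transfer was 100 nL into about 20 µL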
Target sequence (Q9Y5K5 whole entry, looked up): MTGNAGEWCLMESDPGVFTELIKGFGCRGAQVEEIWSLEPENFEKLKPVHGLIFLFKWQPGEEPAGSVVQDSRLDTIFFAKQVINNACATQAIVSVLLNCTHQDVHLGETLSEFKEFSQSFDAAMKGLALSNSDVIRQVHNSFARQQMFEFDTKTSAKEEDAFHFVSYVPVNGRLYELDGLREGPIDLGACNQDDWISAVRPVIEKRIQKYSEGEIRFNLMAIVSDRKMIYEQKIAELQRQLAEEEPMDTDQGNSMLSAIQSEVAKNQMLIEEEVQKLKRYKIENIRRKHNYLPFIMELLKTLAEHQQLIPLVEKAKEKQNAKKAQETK
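Test system – human UCH37 enzyme supplied as purified proteasome complex · Incubation – 30 min preincubation with enzyme, 25 min cleavage at room temperature · Detection – AMC fluorescence from Ub-AMC cleavage, excitation 355 nm, emission 460 nm · Benchmarks – no-proteasome wells (full inhibition) and compound-free wells (no inhibition)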
Ecoli rRNA inh – reduced GFP signal of wild-type E. coli, primary screen, bacterial rRNA inhibitor project, GFP/RFP fluorescence, OD600, single point. E. coli WT GFP vs humanized-ribosome RFP mutants, 24 h; hits give low values; DMSO median 0, no signal -100. GFP signal change (wild-type ribosome), % (concentration not given with the values). actives 1.6% (n = 350,000). AID 720706, 2013;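 active means significant combined selectivity score with lowered wild-type GFP, culture density cut under 30%, mutant RFP and density less affected; inactive means any of these conditions unmet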; further: one replicate is shown; some compounds called inactive have numbers as strong as hits
FGF22 binding – binders of human FGF22 protein, primary screen, FGF22 synaptogenesis inhibitor project, biophysical, thermal shift, single point; Fibroblast growth factor 22 (Homo sapiens), Q9HCT0; recombinant FGF22 thermal shift, SYPRO orange fluorescence; percent of sucrose octasulfate shift, DMSO zero; calls only at 9.99 µM; AID 651658, 2012; actives 1.5% (n = 340,000);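 active means melting point raised past a set limit in the mean and every replicate; inconclusive means no clear call; three in four hits are not shown here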
Target sequence (Q9HCT0 whole entry, looked up): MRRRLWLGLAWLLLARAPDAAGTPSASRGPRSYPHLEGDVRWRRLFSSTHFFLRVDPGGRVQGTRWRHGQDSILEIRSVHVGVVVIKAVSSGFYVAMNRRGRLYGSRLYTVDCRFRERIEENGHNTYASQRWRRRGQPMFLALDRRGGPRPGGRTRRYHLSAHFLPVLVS
Ecoli rRNA inh OD600 – further read-out of Ecoli rRNA inh, marked with its call; OD600 change, %; measured here: OD600 growth;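 optical density of the mix in the first replicate; 0 = DMSO median and -100 = no signal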
Ecoli rRNA inh RFP – second read-out of Ecoli rRNA inh, no call of its own (marks repeat the call); RFP signal change, %; measured here: RFP humanized mutant strains;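 first replicate; 0 = DMSO median and -100 = no signal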
* hit, by the source's call; i = inactive; ? = inconclusive; · = not tested or not shown; + = active, no number. An excerpt; the hit share may differ from the screen's.

SMILES	AF4-AF9 inh	Bfl-1 A1 inh	E coli growth	T cruzi repl	Beta cell apopt	UCH37 inh	Ecoli rRNA inh	Ecoli rRNA inh OD600	Ecoli rRNA inh RFP	FGF22 binding
O=C(N/N=C/C=C/c1ccccc1[N+](=O)[O-])c1cc(-c2ccccc2)n[nH]1	5.4	0.4	·	3	7	·	-34*	-12*	9.1*	i
CN(Cc1ccccc1)C(=O)c1nc2ccccn2c1CN1CCc2sccc2C1	3.2	0.5	0.67	24	-6	-8.0	-40	-62	-4.2	i
CCc1cc(=O)oc2cc(OCC(=O)N3CC[C@@]4(O)CCCC[C@H]4C3)ccc12	-3.2	-0.4	0.78	1	·	-32	·	·	·	i
O=C(Nc1ccccc1)C1CC=CCC1C(=O)OCC1CCCO1 (centres undefined)	·	0.1	0.7	-13	-7	1.1	15	12	2.5	·
O=C(c1cccc(Oc2ccccc2)c1)N1CCOCC1	-1.6	0.6	0.67	-5	1	1.6	-2	0	-4.2	i
CN(Cc1c(F)cccc1Cl)S(=O)(=O)c1cccs1	-1.5	0.2	0.7	10	-2	2.5	-34	-50	-12	i
CCCOc1ccc(/C=N/NC(=O)C2CC2)c(OCCC)c1	-4.7	0.4	·	-9	0	·	7	12	-0.5	i
COc1ccc(/C=N\NC(=O)c2cccc(Br)c2)c(OC)c1	-1.6	-0.6	·	6	-8	·	·	·	·	·
COc1ccc(CC(C)N2CCN(Cc3ccccc3)CC2)c(OC)c1 (centres undefined)	5.8	-0.1	0.68	61*	1	0.6	13	0	-7.9	i
Cc1cc(C)nc(N2CCN(S(=O)(=O)c3ccc(F)cc3)CC2)n1	-2.2	-0.7	0.64	-3	-7	1.9	22	9	7.2	i
COc1cc(/C=C/C(=O)N(C)CC(=O)Nc2ccccc2SC)cc(OC)c1OC	0.3	-0.8	0.7	·	-8	-16	-2	3	0.2	i
O=C(OCC(=O)c1ccc[nH]1)c1ccc(Br)cc1	-5.7	-2.3	0.65	·	-3	0.5	7	1	1.5	i
CCOC(=O)c1c(S(=O)(=O)Nc2ccc(F)cc2Cl)c(C)n(C)c1C	6.3	0.6	0.73	1	·	6.9	5	8	0.2	i
Cc1cc(Nc2cccc(Br)c2)c2ccccc2n1	4.2	0.4	0.61	?	32	3.5	17	-1	-2.8	i
O=C(Nc1nccs1)C1CC(=O)N(CCc2ccccc2)C1 (centres undefined)	-0.6	·	0.69	·	·	3.7	15	12	4.5	i
CCN(CC)CCNC(=O)Cn1nc(Cc2ccncc2)c2ccccc2c1=O	-3.0	0.9	0.67	2	-9	3.9	9	17	1.9	i
CN(C)CCNC(C(=O)Nc1cccc(S(=O)(=O)N2CCOCC2)c1)c1ccccc1 (centres undefined)	1.6	0.6	0.73	·	0	2.0	16	11	1.0	i
CCOC(=O)c1c(S(=O)(=O)N2CCCC(C(=O)Nc3ccc(C)cn3)C2)c(C)n(C)c1C (centres undefined)	1.5	1.0	0.69	-1	-3	3.6	-2	3	-3.7	i
Cc1ccc(NS(=O)(=O)c2ccc3c(c2)CC(=O)N3)c(C)c1	-7.5	0.5	0.7	0	0	0.1	6	10	-3.9	i
COc1cc(C(=O)NCc2cccc(Cl)c2)ccc1OCC(=O)N1CCOCC1	-3.2	0.8	0.65	1	·	-1.9	1	-3	-0.7	i

Part of the list above in order of number of heavy atoms, high to low:
SMILES	AF4-AF9 inh	Bfl-1 A1 inh	E coli growth	T cruzi repl	Beta cell apopt	UCH37 inh	Ecoli rRNA inh	Ecoli rRNA inh OD600	Ecoli rRNA inh RFP	FGF22 binding
CN(C)CCNC(C(=O)Nc1cccc(S(=O)(=O)N2CCOCC2)c1)c1ccccc1 (centres undefined)	1.6	0.6	0.73	·	0	2.0	16	11	1.0	i
COc1cc(C(=O)NCc2cccc(Cl)c2)ccc1OCC(=O)N1CCOCC1	-3.2	0.8	0.65	1	·	-1.9	1	-3	-0.7	i
O=C(OCC(=O)c1ccc[nH]1)c1ccc(Br)cc1	-5.7	-2.3	0.65	·	-3	0.5	7	1	1.5	i

Carrying on.
SMILES	AF4-AF9 inh	Bfl-1 A1 inh	E coli growth	T cruzi repl	Beta cell apopt	UCH37 inh	Ecoli rRNA inh	Ecoli rRNA inh OD600	Ecoli rRNA inh RFP	FGF22 binding
Cc1cccc(C)c1NC(=O)CNC(=O)CNC(=O)c1ccc2c(c1)OCO2	-2.2	-0.9	0.66	3	-18	-0.9	2	11	-1.1	i
Cc1cc(N/N=C/c2cccc([N+](=O)[O-])c2)nc(-n2nc(C)cc2C)n1	1.8	-0.8	·	-55	59	·	0	3	-1.1	i
CC1(C)Cc2cccc(OCC(=O)NCCOc3ccccc3)c2O1	-0.4	1.2	0.71	-9	7	0.1	-26	-31	-4.1	i
O=C(Cn1nc(C(F)F)cc1C(F)F)NNC(=S)Nc1ccc(F)cc1	·	-1.0	0.64	-11	-8	-0.1	·	·	·	·
Cc1c(OCC(=O)NCc2ccccn2)ccc2c(-c3ccccc3)cc(=O)oc12	-2.0	-0.2	0.79	-4	6	-0.6	·	·	·	i
Cc1cccc(C(C)C)c1NC(=O)Cc1ccc(S(=O)(=O)N2CCOCC2)s1	-1.3	·	0.65	-4	-1	1.1	5	2	-0.6	i
COc1ccc(S(=O)(=O)N(C)C)cc1NC(=O)COC(=O)c1nc2nccc(C)n2n1	-59	0.2	0.69	-5	-4	0.4	-3	-3	-6.5	i
COc1ccc(CCN2CC(C(=O)Nc3ccc4c(c3)OCO4)CC2=O)cc1OC (centres undefined)	0.6	-0.2	0.68	-3	-2	1.1	15	7	-0.4	i
Cc1ccc(S(=O)(=O)N2CCN(C(=O)COC(=O)CCOc3cc(C)ccc3C)CC2)cc1	-0.8	0.0	0.6	-4	5	2.1	-5	-6	1.1	i
CC(OC(=O)c1nn(C)c(=O)c2ccccc12)C(=O)NCc1ccc2c(c1)OCO2 (centres undefined)	·	-0.1	0.73	-6	-4	5.5	·	·	·	·
Cn1nnnc1NCc1ccccc1F	1.4	-0.6	0.68	-7	·	0.8	19	11	2.5	i
CCSc1ncc(C#N)c(=O)[nH]1	·	-0.3	0.78	2	-5	2.6	·	·	·	·
Cc1cc(C)cc(NC(=S)N(CCN(C)C)Cc2cccs2)c1	4.6	0.2	0.67	-10	-5	1.3	2	-3	3.4	i
O=c1cc(CSc2n[nH]c(-c3ccncc3)n2)nc2sccn12	-1.9	-0.5	0.68	-6	1	2.7	14	9	1.0	i
COc1ccc(-c2cc(C(F)(F)F)nc(SCC(N)=O)n2)cc1	·	1.0	0.65	-13	-5	-228	·	·	·	·
c1ccc2sc(SCSc3nc4ccccc4s3)nc2c1	-3.1	-0.1	0.7	-3	4	1.1	5	6	0.7	i
Cc1oc(-c2ccccc2)nc1C(=O)N1CCN(c2ccc(F)cc2)CC1	-2.5	-0.1	0.7	4	-2	1.7	-14	15	-1.0	i
COc1cc(/C=N/NC(=O)c2ccncc2)ccc1OCC(=O)Nc1cccc([N+](=O)[O-])c1	1.0	0.0	·	-1	-5	·	3	11	1.7	+
Cc1nc(-c2ccc(C(=O)Nc3cccc(Br)c3)cc2)cs1	-1.7	-12	0.68	18	11	3.5	-15	-4	-0.1	i
CC1CCCC(C)N1C(=O)COc1ccccc1F (centres undefined)	-1.7	0.1	0.66	2	1	2.2	6	1	1.8	i
COc1ccc(OC)c(C(=O)c2coc3ccc(O)c(CN(C)C)c23)c1	1.3	-0.2	0.69	1	-8	7.0	9	7	0.7	i
N#Cc1cn(CCCOc2ccccc2)c2ccccc12	·	0.7	0.68	24	-3	2.3	·	·	·	·
CCOC(=O)c1c(NC(C)=O)sc(C(=O)NC2CCCC2)c1C	-1.1	-0.2	0.66	-16	2	-1.4	7	12	-0.3	·
CCN1CCN(C(=O)Cn2nc(C)c3sc4ccccc4c3c2=O)CC1	-1.6	0.9	0.69	0	·	-4.3	9	9	-1.6	i
COc1ccc([C@@H]2[C@@H]3C(=O)N(C(C)(C)C)C(=O)[C@@H]3[C@]3(Cc4ccc(Cl)cc4)C(=O)N(c4cccc(F)c4)C(=O)N23)cc1	3.1	-0.5	·	·	13	1.4	4	2	-0.7	i
O=C(c1cccc(F)c1)N1CCCC(C(=O)N2CCCCCC2)C1 (centres undefined)	-1.5	1.2	0.67	-12	-2	4.5	8	5	-0.7	i
O=C(NCc1ccccc1Cl)c1ccc(CS(=O)Cc2ccc(Cl)cc2)o1 (centres undefined)	-0.8	0.3	0.69	3	2	1.9	-6	-30	0.6	i
CCN1CCN(c2ncc(C(=O)Nc3ccccc3C(=O)OC)c3ccccc23)CC1	·	0.4	0.68	35	4	-13	·	·	·	·
Cc1[nH]c2ccccc2c1-c1ccc(Cl)nn1	1.3	0.0	0.7	12	0	2.9	-1	-5	-4.4	i
COc1ccc(/C=N/OCC(=O)N=Nc2c(O)[nH]c3ccc(Br)cc23)cc1OC	-0.4	0.0	·	1	-7	·	0	0	-2.2	i
CC1CCCC(C)N1C(=O)Cn1nnc(-c2ccccc2)n1 (centres undefined)	-0.1	0.9	0.62	-13	2	1.3	6	4	4.8	i
N#CC1(c2ccccc2)CCC(=O)N1c1ccccc1 (centres undefined)	-2.2	1.6	0.62	-6	-10	1.0	4	3	0.5	i
C#CCN1C(=O)S/C(=C/c2cc(C)n(CC)c2C)C1=O	·	-0.5	0.7	3	-4	-1.4	·	·	·	·
CCN(C(=O)COC(=O)c1cc([N+](=O)[O-])ccc1N1CCCCC1)C1CCS(=O)(=O)C1 (centres undefined)	0.1	0.0	0.64	13	0	8.8	-9	-4	2.7	i
CC(=O)c1cccc(NC(=S)Nc2cccc3ccccc23)c1	3.3	-0.7	0.73	0	9	0.8	0	4	1.4	i
Cc1ccc(NC(=O)CCNS(=O)(=O)c2ccc(Br)cc2)cc1S(=O)(=O)N1CCOCC1	-1.7	0.0	0.66	-8	-1	4.9	0	-6	-1.9	i
CCN(Cc1ccccc1)S(=O)(=O)c1ccc(F)cc1	-4.2	0.4	0.67	2	-3	-0.2	-4	1	-3.4	i
CC(=O)NCCOc1c(C)cc(S(N)(=O)=O)cc1C	·	0.2	0.7	-9	1	-1.2	·	·	·	·
NC(=O)NC(=O)COC(=O)/C=C/c1cccc(Br)c1	2.5	-0.5	0.68	-3	-11	2.2	5	15	0.3	i
NCCc1nnc(SCc2ccccc2)o1	·	-1.2	0.7	4	1	4.9	·	·	·	·
